VDR inhibitor – inhibitors of human vitamin D receptor; P11473; VDR-SRC2-3 peptide fluorescence polarization, 2 h; Potency, µM, for inactives: max response, negative = inhibition, hits mostly inhibitors; 400,000 compounds, 0.93% hits; active = well fitted inhibition curve with a large enough effect; inconclusive = small, poorly fitted or top-dose-only effect, or another doubt; inactive = no such curve, though single readings can be large or run the other way; also: series mostly up to about 120 µM
Target sequence (P11473 whole entry, looked up): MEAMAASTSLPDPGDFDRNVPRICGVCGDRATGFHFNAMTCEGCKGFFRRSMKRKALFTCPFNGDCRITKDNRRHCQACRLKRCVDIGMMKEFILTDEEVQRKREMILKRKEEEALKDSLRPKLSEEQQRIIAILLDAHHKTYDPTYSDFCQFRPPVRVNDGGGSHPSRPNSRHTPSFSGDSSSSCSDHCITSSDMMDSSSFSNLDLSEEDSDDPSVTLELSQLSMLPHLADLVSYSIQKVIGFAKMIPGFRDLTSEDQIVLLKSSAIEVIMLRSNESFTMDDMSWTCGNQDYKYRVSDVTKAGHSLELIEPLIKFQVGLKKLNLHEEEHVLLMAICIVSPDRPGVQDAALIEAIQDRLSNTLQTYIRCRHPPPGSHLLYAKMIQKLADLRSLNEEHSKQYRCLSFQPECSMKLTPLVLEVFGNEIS
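Inhibition of the VDR/SRC2-3 peptide interaction is quantified by fluorescence polarization. Compounds (23 nl, pintool) incubate with the reagents for 2 hours at ambient room temperature.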
The depositor's hits bear a star; ? = inconclusive; & = joins results of further samples. % is scaled to controls: 0 for no effect and ±100 for the full control effect; potency is read from the fitted curve at half-maximal effect. Only part of the results is shown (hit frequency here may not be typical).

SMILES	VDR inhibitor
COc1ccc(CNc2ccc([N+](=O)[O-])cc2C)cc1	1%
CC1CN(C)C(C)c2c1oc1ccc([N+](=O)[O-])cc21 (centres undefined)	-10%
CC(C)S(=O)(=O)c1cnc(N2CCOCC2)nc1N	2%
Cc1oc2ccc(OCc3c(F)cccc3Cl)cc2c1C(=O)O	-10%
COc1ccccc1OCC(O)CN1C(=O)NC(C)(C)C1=O (centres undefined)	-16%
COc1cc(C(=O)N/N=C(\c2ccccc2)c2ccccn2)cc(OC)c1OC	0%
Cn1c(COc2ccc(Cl)cc2)nnc1SCC(=O)Nc1ccc2c(c1)CCC2	-3%
Nc1c(Cl)c(Cl)nc(C(=O)N/N=C/c2cccnc2)c1Cl	-20%
CCS(=O)(=O)N1CCC(C(=O)NC2CCCCCCC2)CC1	6%
CCCOC(=O)/C(=C\C=C\c1ccco1)NC(=O)c1ccccc1	13%
CC1(C)Cc2ccccc2-c2nc3n(c(=O)c21)CCS3	-3%
O=C(CNC(=O)c1ccc(Br)o1)NNC(=O)c1cccc(Cl)c1	20%
NC(=O)c1cnccn1	-16%&-9%&-1%
COc1cc(-c2coc3cc(O[C@H]4OC(CO)C(O)C(O)C4O)c(OC)c(O)c3c2=O)cc(O)c1OC (some centres undefined)	-7%
CN(C(=O)c1cncc(Br)c1)c1c(N)n(Cc2ccccc2)c(=O)[nH]c1=O	-9%
CCOC(=O)c1ccccc1Nc1nc2ccc(C)cc2n2nnnc12	-16%
COc1ccc(C(=O)NCCS(=O)(=O)NCc2ccccc2OC)cc1	-2%
Nc1[nH]c(=O)ncc1F	-22%&-7%
CCOC(=O)NC(Nc1sc2c(c1C(=O)OC)CCN(C)C2)(C(F)(F)F)C(F)(F)F	1%
O=C(COc1ccccc1[N+](=O)[O-])N1CCN(C(=O)c2ccco2)CC1	-16%
CCOc1cccc(-c2nnc3sc(COc4ccc(C)cc4)nn23)c1	-5%
CC(=O)Oc1ccc2oc(/C=C/N(C)C)c([N+](=O)[O-])c2c1	10%
O=C(NNS(=O)(=O)c1ccc(F)cc1)c1ccc([N+](=O)[O-])cc1Cl	-2%
CC1(C)Cc2c(cnn2-c2cccc(F)c2)C(NC(=O)CCc2cnccn2)C1 (centres undefined)	8%
CCN(CC)CCCNC(=O)c1cn(C)c(=O)c2c1c1ccccc1n2C	17%

(next part)
SMILES	VDR inhibitor
CCOc1ccc(NC(=O)Cc2c(C(=O)O)n(C)c3ccccc23)cc1	-15%
CC(=NCCc1c(C)[nH]c2ccc(OCc3ccccc3)cc12)C1=C(O)CC(c2ccccc2)CC1=O (centres undefined)	-15%
CC(=O)N1c2ccc(S(=O)(=O)NCCC(=O)Nc3ccccc3C)cc2CC1C (centres undefined)	0%
CC(C)[C@H](NC(N)=O)C(=O)Nc1ccc2c(c1)CCC2	3%
CCOc1ccc(NC(=O)CSc2oc(-c3ccc(C)cc3)nc2S(=O)(=O)c2ccc(C)cc2)cc1	-10%
CCOC(=O)c1sc(S(C)(=O)=O)c2c1CCc1conc1-2	1%
COc1ccc(C2NC(=O)NC(O)(C(F)(F)F)C2C(=O)c2ccccc2)cc1OC (centres undefined)	18%
CS(=O)(=O)N1N=C(c2ccc(Cl)cc2)CC1c1cccs1 (centres undefined)	-1%
O=C(CNC(=O)c1ccc(Cl)cc1Cl)NCc1ccccn1	-3%
COc1ccccc1-c1sc2cc3c(cc2c1-c1ccc2c(c1)OCO2)OCO3	-5%
Cc1ccnn1CC(=O)N/N=C/c1cccs1	-6%
CC(=O)NC(CCS(C)(=O)=O)C(=O)Nc1nccs1 (centres undefined)	-18%
CCc1c(C2(O)CCCCC2)[nH]c2c(C(=O)OC)cc(Cl)cc12	-12%
CCCCn1nnc(NC(=O)c2cc3ccccc3o2)n1	-3%
COC(=O)c1ccc(Oc2c(C(F)(F)F)oc3c(CN4CCN(C)CC4)c(O)ccc3c2=O)cc1	4%
O=C(CCCC(=O)N(CC(=O)NC1CCCC1)Cc1ccccc1)Nc1ccccn1	13%
COC(=O)c1sccc1NC(=O)CN(C)NS(=O)(=O)c1ccc([N+](=O)[O-])cc1	-27%
O=C(CSc1nncc(=O)[nH]1)Nc1cccc([N+](=O)[O-])c1	?
Cc1cccc(NC(=O)C2CCCC2)c1	-8%
COc1ccc(Cn2nnnc2C(c2cc3ccc(OC)cc3[nH]c2=O)N2CCCCCC2)cc1 (centres undefined)	-8%
O=C(NN=C1CCCCCC1)c1cccs1	20%
CN(C)c1ccnc(-n2cccc2/C=N/OCc2cccc(F)c2)c1C#N	0%
Nc1ccc2nc(C3CCCCC3)[nH]c2c1	-8%
Cc1c2c(n3c(nc4ccccc43)c1C#N)N(CCN(C)C)CC2	13%
COCc1ccc(C(=O)Nc2ccc(C(=O)O)cc2)o1	-29%

Quoted at random: five records from the list, in no set order.
SMILES	VDR inhibitor
CCOC(=O)c1ccccc1Nc1nc2ccc(C)cc2n2nnnc12	-16%
O=C(CNC(=O)c1ccc(Cl)cc1Cl)NCc1ccccn1	-3%
CC(=O)N1c2ccc(S(=O)(=O)NCCC(=O)Nc3ccccc3C)cc2CC1C (centres undefined)	0%
CC(=O)NC(CCS(C)(=O)=O)C(=O)Nc1nccs1 (centres undefined)	-18%
CC1CN(C)C(C)c2c1oc1ccc([N+](=O)[O-])cc21 (centres undefined)	-10%

Other structures
SMILES	VDR inhibitor
Nc1nc(Cl)nc2c1ncn2C1OCC(O)C(O)C1O (centres undefined)	-4%
Cc1ccc(CNC(=O)CSc2nc3ccsc3c(=O)n2Cc2ccccn2)cc1	-5%
CC(c1ccon1)N(C)Cc1cn(C)nc1-c1ccc2c(c1)OCCO2 (centres undefined)	-3%
Cc1cc2[nH]c(=O)c(=O)[nH]c2cc1S(=O)(=O)N1CCN(c2cccc(Cl)c2)CC1	-3%&4%
CCOc1ccc(NC(=S)N(CCc2c(C)[nH]c3ccc(C)cc23)Cc2ccncc2)cc1	0%
COC(=O)C1(CC2CC(c3ccncc3)=NO2)CCN(C(=O)OC(C)(C)C)CC1 (centres undefined)	-16%
CCC(=O)N1CCc2cc(S(=O)(=O)NCCN3CCC(C)CC3)ccc21	-13%
CCCn1c(SCC(=O)NCc2cccs2)nc2c1c(=O)n(C)c(=O)n2C	-13%
CC1=CC(=NOC(=O)c2cccc([N+](=O)[O-])c2)C=C(C)C1=O	?
O=C(COC(=O)Cc1c(F)cccc1Cl)Nc1ccc2[nH]c(=O)[nH]c2c1	-12%
COCC(=O)Nc1ccc(-c2cn3cccnc3n2)cc1	0%
COC(=O)[C@H](C)NC(=O)Nc1cccc(Br)c1	-8%
CCC1Oc2ccccc2N(CC(=O)NCc2ccccc2)C1=O (centres undefined)	11%
COc1ccc(S(=O)(=O)N2CCOCC2)cc1NC(=O)CCc1c[nH]c2ccccc12	13%
CCOc1ccc(-c2cc3c(=O)n(CC(=O)NCc4ccc(C)cc4)ccn3n2)cc1	-1%
CC1=CC=CN2C1=NC(=O)CC2(C)C(=O)N(CC(=O)NC1CCCC1)c1ccccc1C (centres undefined)	-24%
CCOC(=O)c1ccc(-c2ccc(/C=C(\C#N)C(=O)Nc3c(C)cccc3Cl)o2)cc1	-15%
CC(C)Sc1nnc2n(CCc3ccccc3)c(=O)c3c4c(sc3n12)COC(C)(C)C4	-5%
CC1(C)Cc2sc3c(=O)[nH]c(=S)[nH]c3c2CO1	1%
COC(=O)CSC1=NS(=O)(=O)c2ccccc21	32µM*
Cc1cc2c(cc1S(=O)(=O)NCCc1ccccc1)NC(=O)CO2	-8%
Cc1ccc(-c2cc(C(=O)NCCN3CCOCC3)c3ccccc3n2)o1	8%
Cc1nnc2sc(-c3ccncc3)nn12	8%
Cc1ccc2c(c1)N(CCCC(=O)NCCC1=CCCCC1)C(=O)CO2	-4%
CC(C)(C)N(NC(=O)Nc1ccccc1)C(=O)c1ccccc1	-21%

Entries shown so far containing a tert-butyl group, in the order listed:
SMILES	VDR inhibitor
COC(=O)C1(CC2CC(c3ccncc3)=NO2)CCN(C(=O)OC(C)(C)C)CC1 (centres undefined)	-16%
CC(C)(C)N(NC(=O)Nc1ccccc1)C(=O)c1ccccc1	-21%

No new results follow: an excerpt of the list.
SMILES	VDR inhibitor
Cc1ccc(-c2cc(C(=O)NCCN3CCOCC3)c3ccccc3n2)o1	8%
Cc1nnc2sc(-c3ccncc3)nn12	8%
Cc1ccc2c(c1)N(CCCC(=O)NCCC1=CCCCC1)C(=O)CO2	-4%
CC(C)(C)N(NC(=O)Nc1ccccc1)C(=O)c1ccccc1	-21%

Carrying on:
SMILES	VDR inhibitor
Cc1cc(=O)[nH]c(NN=Cc2c(Cl)cccc2Cl)n1	-3%
COc1ccccc1/C=C/C(=O)OCC(=O)c1c(N)n(C)c(=O)n(C)c1=O	13%
C=CCn1c(N)c(C(=O)NC2CCCCC2)sc1=S	-6%
CC(C)NC(=O)CCCC(=O)NC(C)C	-14%
O=S(=O)(NCC1CCCO1)c1ccc(Cl)c(C(F)(F)F)c1 (centres undefined)	10%
Cc1[nH]c(=S)c(C#N)c(C)c1C(=O)Nc1ccccc1	-11%
O=C(NCC1CCCCC1)c1ccco1	-1%
Cn1c(C(=O)N2CCN(c3ccccc3)CC2)cc2cc(Cl)ccc21	-14%
COc1ccc(-n2c(=S)[nH]c3cc(C(=O)NC4CCCCC4)ccc3c2=O)c(OC)c1	-6%
Cc1ccc(C(=O)OCC(=O)NC2CCS(=O)(=O)C2)c(C)c1 (centres undefined)	-12%
COc1ccc(-c2cc(-c3ccccc3)nc(N)n2)c(O)c1	?
CSc1ncccc1C(=O)NCCc1ccccc1	-18%
COc1ccc(CNC(=O)c2cc(=O)c3cc(C)ccc3o2)cc1	11%&1%
C=CCNC(=O)CCCOc1ccc(C)cc1	8%
CCC(C)NC(=O)c1ccc2c(c1)sc1nc(-c3ccc(OC)cc3)cn12 (centres undefined)	15%
CN(C)CCCN(C(=O)CCSc1ccccc1)c1nc2cc3c(cc2s1)OCO3	-5%
CN(C)c1ccc(Nc2nc(N)c3ccccc3n2)cc1	8%
Cc1ccc(CNC(=O)CNC(=O)c2ccc(Br)o2)cc1	4%
O=C(O)CSc1c[nH]c2ccccc12	-18%
Cc1c(Cl)cccc1-n1c(SCC(=O)N(C)Cc2ccccc2)nnc1-c1ccncc1	-3%
COCCN(CCOC)c1nc(-c2ccccc2)nc2ccccc12	-23%
Cc1ccc(C)c(NC(=O)Cn2c(SCC(=O)NCc3ccccc3)nc3ccccc32)c1	2%
Cc1cc(C)cc(NC(=O)Nc2cnccn2)c1	-15%
CCS(=O)(=O)NC(C)C(c1cccs1)N1CCN(C)CC1 (centres undefined)	-11%
Cc1[nH]n(C(N)=S)c(=O)c1C(c1ccccc1)C(C#N)C#N (centres undefined)	?

Four entries from above, arranged by number of heavy atoms, rising:
SMILES	VDR inhibitor
Cc1cccc(NC(=O)C2CCCC2)c1	-8%
CCCCn1nnc(NC(=O)c2cc3ccccc3o2)n1	-3%
CCCOC(=O)/C(=C\C=C\c1ccco1)NC(=O)c1ccccc1	13%
CCOc1ccc(NC(=S)N(CCc2c(C)[nH]c3ccc(C)cc23)Cc2ccncc2)cc1	0%

The list continues.
SMILES	VDR inhibitor
Cc1sc2nc(C3CC3)nc(SCC(=O)NCc3ccco3)c2c1C	-3%
COc1ccc(NC(=O)c2cc([N+](=O)[O-])ccc2NC(=O)CNC2CCCCC2C)c(OC)c1 (centres undefined)	-1%
S=c1[nH]nc(-c2ccccn2)n1/N=C/c1cccc2ccccc12	-5%
COC(=O)c1sc2ncccc2c1OCc1ccc(Cl)cc1	18%
CCc1ccc(N2CC(C(=O)N/N=C/c3cccc([N+](=O)[O-])c3)CC2=O)cc1 (centres undefined)	4%
O=S(=O)(c1cnc[nH]1)N1CCCCCC1	13%
C=CCn1c(SCc2ccc(C#N)cc2)nnc1-c1ccc(C)cc1	5%
O=C(CCSc1ccc(Cl)cc1)c1ccco1	?

High-throughput results: PubChem, National Center for Advancing Translational Sciences (NCATS)
